miR-21 FLuc – raises the signal of a miR-21 reporter; HeLa miR-21 FLuc reporter, luciferase, 48 h; Potency, µM (doses to about 38.3 µM), for inactives: at the highest dose reporter change, positive = more light; 340,000 tested, under 10 active; AID 2288; active = well fitted rising curve with a large enough effect; inconclusive = small, poorly fitted or top-dose-only effect; inactive = no such curve, though single readings can be large or run the other way;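 also: % of control where 0% means no effect; miR-21 action dims this reporter so a rising signal means less miR-21 action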
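Using DMEM plus 10% FBS, HeLa miR-21-FLuc cells are incubated with test compounds (final up to about 40uM) for 48 hours; firefly luciferase signal is then imaged following reagent-mediated lysis.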
Rango-impB inh – inhibitors of Rango-importin beta complex formation | Rango CFP/YFP FRET sensor + importin beta, 45 min | Potency, µM (series often up to 92.2 µM), without a hit: at the highest dose inhibition of complex formation | 0.031% of 340,000 active | Q14974; active = rising FRET ratio curve, often small or poorly fitted; inconclusive = mostly compound fluorescence or quenching in the first reads; inactive = flat curves in all reads;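 also: potency is read from the fitted curve at half-maximal effect; 0% = DMSO wells and 100% = buffer wells lacking importin beta; nearly all actives have a fitted effect of over 15% in size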
Target sequence (Q14974 whole entry, looked up): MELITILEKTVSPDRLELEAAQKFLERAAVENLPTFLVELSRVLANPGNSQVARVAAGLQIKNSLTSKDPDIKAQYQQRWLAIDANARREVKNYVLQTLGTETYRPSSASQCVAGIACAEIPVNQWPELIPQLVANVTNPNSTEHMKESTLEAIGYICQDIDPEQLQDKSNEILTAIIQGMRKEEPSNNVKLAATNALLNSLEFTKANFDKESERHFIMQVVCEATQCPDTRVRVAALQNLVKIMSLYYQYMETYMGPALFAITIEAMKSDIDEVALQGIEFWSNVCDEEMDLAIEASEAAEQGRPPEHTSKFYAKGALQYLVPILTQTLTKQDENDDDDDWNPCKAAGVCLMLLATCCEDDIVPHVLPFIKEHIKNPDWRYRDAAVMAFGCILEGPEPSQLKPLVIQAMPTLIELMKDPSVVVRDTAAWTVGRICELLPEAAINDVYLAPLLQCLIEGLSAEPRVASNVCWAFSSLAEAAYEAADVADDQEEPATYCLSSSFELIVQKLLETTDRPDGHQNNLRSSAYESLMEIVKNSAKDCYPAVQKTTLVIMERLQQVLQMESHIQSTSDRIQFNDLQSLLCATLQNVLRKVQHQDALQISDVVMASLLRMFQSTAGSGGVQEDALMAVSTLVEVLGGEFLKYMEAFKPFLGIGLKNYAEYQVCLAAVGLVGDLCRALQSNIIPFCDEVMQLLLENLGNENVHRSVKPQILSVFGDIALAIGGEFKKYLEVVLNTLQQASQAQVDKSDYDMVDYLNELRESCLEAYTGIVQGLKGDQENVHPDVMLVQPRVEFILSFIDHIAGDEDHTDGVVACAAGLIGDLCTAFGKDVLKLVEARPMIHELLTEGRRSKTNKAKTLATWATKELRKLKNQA
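FRET biosensor Rango (snurportin 1 IBB between N-terminal EYFP and C-terminal Cerulean), 50 nM in PBS/1 mM DTT/0.02% Tween-20/0.1% BSA, preincubated 5 min RT with compound; 0.125 microM importin beta added, 45 min RT, CFP/YFP FRET ratio read.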
Rango release inh – inhibitors of RanGTP-induced Rango-importin beta complex dissociation; O95149+P62826; Biochemical FRET Rango-importin beta, RanGTP-induced dissociation; Potency, µM (titrated, usually from 46.1 µM), without a hit: at the highest dose activity change, negative = inhibition; 0.071% of 340,000 active; AID 540253; active means falling FRET ratio curve, often poorly fitted, with flat reads before Ran was added; inconclusive means other falling curves, or compound fluorescence or quenching; inactive means flat or rising ratio curve;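 also: potency is read from the fitted curve at half-maximal effect; % of control where 0% means no effect; nearly all actives have a fitted effect of over 45% in size; -100% = wells without RanGTP and RCC1; the record marks most hits as doubtful in a second field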
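Rango (0.1 uM)–importin beta (0.25 uM) complex; RanGTP-RCC1 trigger; 45 min RT; CFP/YFP FRET read.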
GLA inh pH 4.5 – alpha-galactosidase A (human) inhibition, pH 4.5. P06280. purified enzyme, 4-MU-alpha-Gal fluorescence, pH 4.5. activity change, negative = inhibition, % at 105 µM. 230,000 tested, under 10 active; inconclusive = small, poorly fitted or top-dose-only inhibition, or a rising curve; inactive = flat fitted curve, though single readings scatter; no compound was filed as active;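 also: 0% = full activity with enzyme and -100% = basal without enzyme; dose as in the result columns while the protocol names 77 µM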
The depositor's hits bear a star; ? = inconclusive; nt = no result given; & = joins results of further samples; [ ] = dose if it differs, or a comment.

The opening 4 compounds, to show the layout:
SMILES	miR-21 FLuc	Rango-impB inh	Rango release inh	GLA inh pH 4.5
Cc1ccccc1C(=O)NNC(=O)c1cccn1C	nt	?	-3.8%	nt
COc1ccc(C(c2nnnn2C(C)(C)C)N2CCN(C)CC2)cc1OC (stereo unspecified)	-5.0%	-1.7%	-3.7%	-8.5
CCNCCNc1ccc(Cl)cc1[N+](=O)[O-]	nt	0.0%	20.6%	nt
CC(=O)c1c(C)[nH]c(C(=O)NNC(=O)COc2cc(C)cc(C)c2)c1C	nt	-2.1%	3.8%	nt

All compounds of this part (from the top)
SMILES	miR-21 FLuc	Rango-impB inh	Rango release inh	GLA inh pH 4.5
Cc1ccccc1C(=O)NNC(=O)c1cccn1C	nt	?	-3.8%	nt
COc1ccc(C(c2nnnn2C(C)(C)C)N2CCN(C)CC2)cc1OC (stereo unspecified)	-5.0%	-1.7%	-3.7%	-8.5
CCNCCNc1ccc(Cl)cc1[N+](=O)[O-]	nt	0.0%	20.6%	nt
CC(=O)c1c(C)[nH]c(C(=O)NNC(=O)COc2cc(C)cc(C)c2)c1C	nt	-2.1%	3.8%	nt
CN(CC(=O)Nc1ccc(N2CCOCC2)cc1)C(=O)c1ccc(CS(C)(=O)=O)cc1	nt	?	-6.6%	nt
CN(C)c1oc(-c2ccco2)nc1S(=O)(=O)c1ccc(Br)cc1	nt	-0.1%	11.5%	nt
O=C(CN1CCCC1c1cccs1)Nc1cc(S(=O)(=O)N2CCCC2)ccc1Cl (stereo unspecified)	nt	-0.7%	-8.0%	nt
Cc1sc2ncn(CC(=O)N3CCN(c4ccccn4)CC3)c(=O)c2c1S(=O)(=O)N1CCCCC1	-2.3%	-5.8%	-18.5%	nt
Cc1ccc(C2=CC(=O)C[C@H](c3ccc(F)cc3)C2)cc1	nt	-0.5%	0.3%	nt
Clc1ccc(N2CCN(/N=C/c3cccnc3)CC2)cc1	-4.4%	-0.4%	1.0%	nt
CC1(C)Cc2c(C#N)c(N3CCN(C(=O)c4ccco4)CC3)nc(Cc3ccccc3)c2CO1	-8.2%	-0.4%	1.4%	1.0
CCCn1c(SCC(=O)N2CCCCC2)nnc1-c1ccccn1	0.1%	nt	nt	4.9
CC(C)Oc1ccc(/C=N/NC(=O)c2ccc(N(Cc3ccccc3)S(C)(=O)=O)cc2)cc1	-3.6%	-0.2%	0.7%	-11.7
COc1ccc(/C=N/NC(=S)Nc2cccc(C(=O)O)c2)cc1	-36.8%	2.5%	0.5%	-5.2
CC(C)C[C@H](NC(=O)c1ccc(OC2CCN(C(=O)C3CC3)CC2)cc1)C(N)=O	1.8%	6.6%	5.2%	-10.2
C#Cc1ccc([C@H]2C=C(C(=O)Nc3ccccc3)O[C@@H](OCc3ccc(CO)cc3)C2)cc1	-1.2%	?	12.7%	-7.0
CC(OC(=O)Cc1ccc(F)cc1)C(=O)N1CCc2ccccc21 (stereo unspecified)	nt	0.0%	-3.5%	nt
O=C(COC(=O)C1CC(=O)N(Cc2ccco2)C1)Nc1ccc(F)cc1F (stereo unspecified)	nt	0.1%	-0.2%	nt
COCCNc1c2c(nc3c(-c4ccccc4)c(C)nn13)CCC2	-0.3%	0.0%	3.4%	-3.7
Cc1ccc(OCC(=O)N/N=C\c2cccn2C)c([N+](=O)[O-])c1	-20.0%	-2.0%	2.9%	nt
Cc1cc2c(cc1S(=O)(=O)N1CC(C)CC(C)C1)OCC(=O)N2 (stereo unspecified)	0.2%	-4.1%	-12.7%	nt
COc1ccc(-c2noc(CCC(=O)Nc3ccc(C)c(C)c3)n2)cc1	-10.1%	5.1%	-0.2%	7.2
CC(C(=O)N=Nc1c(O)[nH]c2ccccc12)n1cnc2ccccc2c1=O (stereo unspecified)	-7.3%	-0.5%	19.1%	-4.3
Cc1ccc2oc(=O)c3cnn(CC(=O)NCCCOC(C)C)c3c2c1	2.4%	-4.2%	-4.2%	-1.2
Cc1ccccc1N1CCN(C2CCCN(C(=O)CCc3c(C)noc3C)C2)CC1 (stereo unspecified)	-4.9%	0.5%	10.0%	nt
Next section:
SMILES	miR-21 FLuc	Rango-impB inh	Rango release inh	GLA inh pH 4.5
COc1ccc(N2C(=O)CCC(C(=O)Nc3cccc(C)n3)C2c2ccc(OC)c(OC)c2)cc1 (stereo unspecified)	-2.8%	0.2%	?	-23.2
COc1cc([N+](=O)[O-])ccc1NC(=O)CCCOc1cccc(C)c1	-8.7%	6.5%	-15.5%	-3.0
CC1=C(C(=O)OC(C)C)C(c2ccc(O)cc2)NC(=O)N1 (stereo unspecified)	-6.7%	0.3%	0.8%	nt
CCCCSc1nnc2c(n1)OC=Nc1ccccc1-2	-19.9%	3.6%	-2.6%	2.1
O=C(O)CCCN1C(=O)C2C3C=CC(C2C1=O)C1C(=O)N(CCCC(=O)O)C(=O)C31 (stereo unspecified)	-3.2%	?	14.7%	nt
O=C(O)CC(c1ccc(Br)cc1)N1Cc2ccccc2C1=O (stereo unspecified)	-2.3%	3.7%	5.9%	nt
CN(C)c1ccc(NC(=O)CSc2nc(N)c(C(=O)Nc3ccc(N(C)C)cc3)s2)cc1	15.8%	-1.4%	-12.3%	-10.6
Cc1ccccc1OCC(=O)OC(C(=O)c1ccccc1)c1ccccc1 (stereo unspecified)	-4.0%	-0.6%	-14.2%	-4.8
Cc1ccc(-c2nnn(CC(=O)N(CCN3CCOCC3)C(C(=O)NC(C)(C)C)c3ccco3)n2)cc1 (stereo unspecified)	2.9%	4.9%	28.4%	4.4
O=C(Cn1cccc1C(=O)c1ccccc1)NCc1ccc(F)cc1	-16.8%&-13.4%	-0.6%	-14.2%	nt
O=C(Nc1ccc(S(=O)(=O)N2CCOCC2)cc1)c1ccc([N+](=O)[O-])s1	nt	-2.6%	-11.6%	nt
CCC1CCCCN1CCCNC(=O)c1nn(C)c2c1CS(=O)(=O)c1ccccc1-2 (stereo unspecified)	0.0%	-3.5%	-11.5%	nt
CC(=O)N1c2ccc(S(=O)(=O)N3CCC(C(=O)Nc4ccc(C)cn4)CC3)cc2CC1C (stereo unspecified)	19.3%	-2.8%	6.2%	nt
O=C1C=C(c2ccccc2)C(O)(c2ccccc2)C1 (stereo unspecified)	-0.8%	?	-0.8%	-1.7
CC(=O)Nc1cc2c(cc1NC(=O)Cn1nnc(-c3ccc(C)o3)n1)OCCO2	-1.0%	-1.9%	1.0%	-4.7
CO/N=C(\C(=O)N[C@@H]1C(=O)N2C(C(=O)O)=C(COC(N)=O)CS[C@H]12)c1ccco1	-6.6%	?	-16.9%	-2.1
CCCn1nnnc1NCc1ccc(F)cc1	-0.5%	0.3%	-11.2%	-2.1
O=C(COC(=O)c1ncc(Cl)c(Cl)c1Cl)NC1CCCCCC1	nt	4.1%	-17.0%	nt
Cc1ccc2c(c1)C1CC(C)(O2)N(c2cccc(C(=O)NC3CCN(Cc4ccccc4)CC3)c2)C(=O)N1 (stereo unspecified)	10.0%	0.3%	13.8%	nt
Cc1ccc(NS(=O)(=O)c2cccc(C(=O)NC3CCN(Cc4ccccc4)CC3)c2)c(C)c1	nt	-1.7%	13.2%	nt
O=C(Cc1cccc2ccccc12)Nc1ccc(O)cc1C(=O)O	-0.1%	0.3%	17.2%	nt
COc1ccc2c(c1)CCc1sc(NC(=O)c3ccc(C)cc3)nc1-2	-14.5%	6.1%	-18.6%	2.9
COC1=C(OC)c2ccccc2C(C(=O)O)N/C1=C(/C)Nc1ccncc1 (stereo unspecified)	1.7%	0.8%	2.1%	1.3
CCN1C(=NCc2ccccc2)N[C@@H](c2ccccc2)[C@H](C(=O)OC)[C@H]1C	0.0%&0.4%	-0.1%	3.0%	nt
CCOC(=O)c1cnn(C)c1NC(=O)c1ccc(Cl)cc1Cl	0.2%	2.9%	-3.1%	nt
(list continues)
SMILES	miR-21 FLuc	Rango-impB inh	Rango release inh	GLA inh pH 4.5
CCCC(=O)N1CCN(c2nc3ccc(CC)cc3s2)CC1	-44.1%	1.4%	8.9%	nt
O=C(NCc1ccccn1)C1CC(c2ccc(Cl)c(Cl)c2)=NO1 (stereo unspecified)	1.0%	-1.7%	-4.4%	-9.5
O=C1NC(=Nc2ccc3ccccc3c2)S/C1=C/c1ccco1	-28.1%	?	-9.8%	-2.2
Cn1c(N)c(C(=O)COC(=O)/C=C/c2ccc(OC(F)F)cc2)c(=O)n(C)c1=O	2.0%	-0.5%	-10.4%	-6.2[21.1 µM]
Cc1occc1C(=O)N/N=C/c1c(O)ccc2ccccc12	3.3%	?	?	nt
O=C(Nc1ccccc1C(=O)O)c1ccc(NC(=O)C2CC2)cc1	-0.9%	-2.7%	-10.9%	nt
CC(C)C(=O)NCCc1c[nH]c2ccccc12	-0.9%	-3.0%	-0.3%	2.0
O=C1/C(=C\c2ccc([N+](=O)[O-])cc2)CCc2ccccc21	-20.8%	-3.9%	19.7%	-5.3
O=[N+]([O-])c1cc(C(F)(F)F)cc([N+](=O)[O-])c1N1CCN(S(=O)(=O)c2ccccc2)CC1	-7.4%	?	-2.3%	-9.1
CCOc1ccc(C(C)=O)cc1N1C(=O)C2C3C=CC(O3)C2C1=O (stereo unspecified)	?	-0.1%	-3.9%	2.8
O=C(NS(=O)(=O)c1ccc(NC(=O)C2CCCO2)cc1)c1ccccc1 (stereo unspecified)	-4.1%	-2.2%	-3.1%	-0.4
COc1ccc(CCC(=O)c2ccc(OC)cc2)cc1	nt	-0.5%	1.0%	nt
O=C(Nc1ccc([N+](=O)[O-])cc1)Nc1cnccn1	-0.4%	0.2%	-25.9%	nt
Cc1sc2nc(CSC(C)C(=O)N3CCOCC3)[nH]c(=O)c2c1C (stereo unspecified)	0.8%	?	-8.6%	nt
CC(=O)c1c(C)[nH]c(C(=O)CSc2nnc(C3CCCCC3)n2N)c1C	2.9%	5.6%	-14.3%	-2.9
CC(C)(C)[C@H]1CCC(=O)N([C@H](CC#N)Cc2ccccc2)CC1	-0.3%	0.9%	-21.0%	nt
Cc1cccn2c(=O)c3cc(C#N)c(=NC(=O)c4ccncc4)n(CCCOC(C)C)c3nc12	-0.5%	?	?	?
COc1cc(/C=C2\SC(N)=NC2=O)ccc1O	29.8%	9.8%	-5.1%	nt
CCOc1ccc(NC(=O)CN(C)C(=O)CSc2ccccc2)cc1OCC	nt	-2.4%	-16.3%	nt
CCOc1ccc(CC(=O)OCc2cc(=O)n3cc(Br)ccc3n2)cc1	-4.4%	?	7.6%	-7.5[21.1 µM]
Cc1nc2ccc(NS(=O)(=O)c3ccc4c(c3)OCCO4)cc2s1	19.4%	-0.3%	-6.2%	0.1
COC(=O)c1ccccc1NC(=O)c1cccc(COc2ccccc2Cl)c1	-14.1%	1.4%	-3.1%	-3.3
O=C(Nc1ccc(Cl)c(Cl)c1)OCCNC(=O)c1ccncc1	12.1%	-1.4%	7.9%	-16.3
N#C/C(=C\c1ccc(N2CCOCC2)c([N+](=O)[O-])c1)c1nc2ccccc2[nH]1	-25.7%	3.1%	-7.7%	-7.1
COc1cc2c3c(c1)-c1c(sn(-c4cc(OC)ccc4OC)c1=S)C(C)(C)N3C(=O)C2=O	-4.0%	3.1%	4.7%	2.4
(listing goes on)
SMILES	miR-21 FLuc	Rango-impB inh	Rango release inh	GLA inh pH 4.5
Cc1ccc(S(=O)(=O)n2c(C)nc3cc(C)ccc32)cc1	-2.0%	2.7%	7.2%	nt
C=C[C@@H]1c2cccc(C)c2N(S(=O)(=O)c2ccc(C)cc2)[C@H](c2ccccc2)C1(C#N)S(=O)(=O)c1ccccc1 (stereo partly specified)	nt	-0.1%	2.7%	nt
COc1ccc(CNC(=O)CSc2nc3c(oc4ccccc43)c(=O)n2CC2CCCO2)cc1 (stereo unspecified)	nt	-1.2%	4.3%	nt
COCCNC(=O)Cn1cc(C(=S)N2CCCCC2)c2ccccc21	-0.4%	-2.2%	2.8%	-9.0
COC(=O)c1scc(C)c1NS(=O)(=O)c1ccc(NC(C)=O)cc1	1.1%	?	-5.9%	4.4
O=C(O)c1ccc(NC(=O)C2CC=CCC2C(=O)O)cc1 (stereo unspecified)	0.3%	1.2%	1.7%	-1.4
O=C(c1ccccc1)N1CCN=C1SCc1ccc([N+](=O)[O-])cc1	-7.5%	-2.7%	-15.7%	6.9
COc1ccc(CCN2C(=O)NC(NS(=O)(=O)c3ccc(Cl)cc3)(C(F)(F)F)C2=O)cc1OC (stereo unspecified)	-1.3%	-0.2%	?	1.1
CCC(C)NC(=O)CCSc1ccc(C)cc1 (stereo unspecified)	-21.0%	0.2%	0.7%	-0.2

Bioassay records (PubChem BioAssay)

The list is partial; rates above refer to the full screens.
